Source: PubChem BioAssay
Vaccinia inh – Vaccinia orthopox stage-specific inhibition; hit rate 0.01% among 89,000; activity change (mCherry), % (concentration not given with the values); Vaccinia-infected cells, mCherry/Venus stage reporter fluorescence; stronger effect = lower value; some inactives read as strong as hits;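 active means mCherry past -33% and 40 or more points under the early reporter, replicates agreeing; inconclusive means past -33% without that gap or agreement; tested in A549 cells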;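 further: scaled between vehicle wells and reference inhibitor wells; 23 nL library stock went into each well; one replicate is shown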
Vaccinia inh Venus – second read-out of Vaccinia inh, no call of its own (marks repeat the call); activity change (Venus), %; measured here: Venus reporter, other viral stage;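 negative = less Venus signal; first of two replicates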
The depositor's hits bear a star; ? = inconclusive; nt = not tested or not shown. The list is partial; rates above refer to the full screens.

SMILES	Vaccinia inh	Vaccinia inh Venus
COc1ccc(S(=O)(=O)N(C)C[C@H]2Oc3ccc(NC(=O)CCC(F)(F)F)cc3C(=O)N([C@@H](C)CO)C[C@H]2C)cc1	3	-2
O=C(C1=C[C@H](C2CCCCC2)C[C@H](OCc2ccc(CO)cc2)O1)N1CCOCC1	14	1
CS(=O)(=O)Nc1ccc2c(c1)[C@H]1C[C@H](CC(=O)NCc3ccc(Oc4ccccc4)cc3)O[C@@H](CO)[C@H]1O2	2	-3
C[C@H](CO)N1C[C@H](C)[C@H](CN(C)S(=O)(=O)c2ccc(F)cc2)Oc2ccc(NC(=O)Nc3ccc(F)cc3)cc2CC1=O	?	nt
CC(C)CC#Cc1ccc2c(c1)O[C@@H](CN(C)Cc1ccccn1)[C@H](C)CN([C@@H](C)CO)S2(=O)=O	?	nt
C/C=C/c1ccc2c(c1)O[C@H](CN(C)C(=O)Cc1ccccc1)[C@H](C)CN([C@@H](C)CO)S2(=O)=O	-21	-19
C[C@@H]1CN([C@@H](C)CO)C(=O)c2cc(NS(=O)(=O)c3ccc(F)cc3)ccc2O[C@H]1CN(C)C(=O)Nc1ccc(F)cc1	18	5
C[C@H](O)C#Cc1cnc2c(c1)C(=O)N([C@H](C)CO)C[C@@H](C)[C@@H](CN(C)Cc1cncnc1)O2	-4	3
C[C@H]1CN([C@@H](C)CO)C(=O)Cc2cc(NC(=O)Nc3ccccc3)ccc2O[C@H]1CN(C)C(=O)Nc1ccc2c(c1)OCO2	5	8
O=C(Nc1cc(F)ccc1F)N1CC(=O)N2[C@H](CO)[C@@H](c3ccc(C#CC4CCCCC4)cc3)[C@H]2C1	?	nt
CN1CCN(C(=O)C[C@H]2CC[C@@H]3[C@H](COc4ccc(NC(=O)C5CCOCC5)cc4C(=O)N3C)O2)CC1	5	10
COc1ccccc1NC(=O)N1C[C@@H](C)[C@H](OC)CN(C)C(=O)c2cc(NC(=O)c3cnccn3)ccc2OC[C@H]1C	12	9
C/C=C/c1cnc2c(c1)C(=O)N([C@@H](C)CO)C[C@@H](C)[C@@H](CN(C)C(=O)Cc1ccccn1)O2	7	4
CO[C@H]1CN(C)C(=O)c2cc(NC(=O)CC(F)(F)F)ccc2OC[C@@H](C)N(C(=O)C2CCOCC2)C[C@H]1C	0	14
COc1ccc2c3c(n(C)c2c1)[C@@H](CO)N(CC1CCOCC1)CC31CN(Cc2nccs2)C1	5	4
COc1cccc(S(=O)(=O)N2CCCCN3[C@@H](CO)[C@@H](c4ccc(C5=CCCCC5)cc4)[C@@H]3C2)c1	?	nt
O=C(CCN1CCCCC1)NCC[C@@H]1CC[C@H](NC(=O)C2CCCCC2)[C@@H](CO)O1	4	5
COc1cccc(S(=O)(=O)Nc2ccc3c(c2)[C@H]2C[C@@H](CC(=O)NC4CCCCC4)O[C@@H](CO)[C@H]2O3)c1	7	15
COCC(=O)N1C[C@@H](C)[C@@H](OC)CN(C)C(=O)c2cc(NC(=O)C3CCC3)ccc2OC[C@H]1C	11	13
CC(=O)N1[C@H](CO)[C@H](c2ccccc2)[C@@H]1CN(C(=O)c1ccccc1F)C(C)C	11	2

Reformatted with two lines to a compound: 3 of the compounds above.
Value order – Vaccinia inh	Vaccinia inh Venus
CN1CCN(C(=O)C[C@H]2CC[C@@H]3[C@H](COc4ccc(NC(=O)C5CCOCC5)cc4C(=O)N3C)O2)CC1
→ 5	10
CC(=O)N1[C@H](CO)[C@H](c2ccccc2)[C@@H]1CN(C(=O)c1ccccc1F)C(C)C
→ 11	2
COc1ccc2c3c(n(C)c2c1)[C@@H](CO)N(CC1CCOCC1)CC31CN(Cc2nccs2)C1
→ 5	4

Later entries
SMILES	Vaccinia inh	Vaccinia inh Venus
C[C@H](CO)N1C[C@H](C)[C@H](CN(C)Cc2ccc(C(=O)Nc3ccccc3N)cc2)Oc2ccc(NC(=O)Nc3ccc4c(c3)OCO4)cc2C1=O	22	9
Cc1ccc(S(=O)(=O)Nc2ccc3c(c2)C(=O)N([C@@H](C)CO)C[C@H](C)[C@@H](CN(C)Cc2ccc(Cl)c(Cl)c2)O3)cc1	?	nt
CC(C)C#Cc1cnc2c(c1)C(=O)N([C@@H](C)CO)C[C@@H](C)[C@@H](CN(C)C(=O)Nc1ccccc1)O2	-3	-6
CCC(=O)Nc1ccc2c(c1)C(=O)N(C)C[C@@H](OC)[C@H](C)CN(CC1CC1)[C@H](C)CO2	-9	-3
CN1CCN(C(=O)C[C@H]2CC[C@@H]3[C@H](COC[C@H](O)CN3CC3CCCC3)O2)CC1	0	-3
COc1ccc2c3c([nH]c2c1)[C@@H](CO)N(C(=O)CC1CC1)CC31CN(Cc2ccncc2)C1	8	8
COc1ccc2c3c([nH]c2c1)[C@@H](CO)N(CC1CC1)CC31CCN(C(=O)NC2CCCC2)CC1	9	14
Cc1ccc(S(=O)(=O)N2C[C@H](O)COC[C@H]3O[C@@H](CC(=O)N[C@H]4CCN(Cc5ccccc5)C4)CC[C@@H]32)cc1	-14	-11
CC=Cc1ccc2n(c1=O)C[C@@H]1[C@@H](CO)[C@H](C(=O)NCCc3ccccc3)[C@H]2N1C (mixture of isomers)	25	12
C[C@@H]1CN([C@H](C)CO)C(=O)c2cccc(NC(=O)Nc3ccc(F)cc3)c2O[C@@H]1CN(C)Cc1ccc(C(=O)O)cc1	12	3
COc1ccc(NC(=O)N(C)C[C@@H]2Oc3ccc(NS(C)(=O)=O)cc3CC(=O)N([C@@H](C)CO)C[C@@H]2C)cc1	-13	-10
C[C@@H]1CN([C@@H](C)CO)C(=O)c2cccc(NS(=O)(=O)c3ccc(F)cc3)c2O[C@@H]1CN(C)Cc1ccccc1	-6	0
C[C@H]1CN([C@@H](C)CO)S(=O)(=O)c2ccc(C#CCN(C)C)cc2O[C@H]1CN(C)S(C)(=O)=O	9	3
O=C(CC1CC1)N[C@@H]1CC[C@H](CCNS(=O)(=O)c2ccc(Cl)cc2)O[C@H]1CO	8	4
CC(C)NC(=O)N(C)C[C@@H]1OCCCC[C@H](C)Oc2ccc(NS(=O)(=O)c3ccc(F)cc3)cc2C(=O)N([C@@H](C)CO)C[C@@H]1C	3	0
Cc1ccccc1S(=O)(=O)N1C[C@H](O)COC[C@H]2O[C@H](CC(=O)NCc3ccccc3Cl)CC[C@@H]21	-10	-1
O=C(C[C@H]1CC[C@H]2[C@@H](COC[C@@H](O)CN2Cc2cccc(F)c2)O1)NCCc1ccncc1	12	7
O=C(NCC1CC1)[C@@H]1[C@@H](CO)[C@@H]2Cn3c(ccc(-c4ccccc4F)c3=O)[C@H]1N2Cc1ccncc1	11	6
CC=Cc1ccc2n(c1=O)C[C@H]1[C@H](CO)[C@@H](C(=O)N(C)C)N(CC3CCOCC3)[C@@H]21 (mixture of isomers)	1	3
COc1ccccc1C#Cc1ccc([C@H]2[C@@H](C#N)N(C(=O)C3CCCC3)[C@@H]2CO)cc1	-11	-1
COc1ccc(NC(=O)Nc2ccc3c(c2)C(=O)N([C@H](C)CO)C[C@H](C)[C@H](CN(C)Cc2ccncc2)OCCCC[C@H](C)O3)cc1	8	1
C/C=C/c1ccc2c(c1)O[C@@H](CN(C)C(=O)NC(C)C)[C@H](C)CN([C@@H](C)CO)S2(=O)=O	2	4
O=C(Nc1ccc2c(c1)[C@@H]1C[C@@H](CC(=O)N3CCCCC3)O[C@@H](CO)[C@@H]1O2)c1cccnc1	15	3
COc1ccc(NC(=O)Nc2ccc3c(c2)[C@@H]2C[C@@H](CC(=O)NCc4ccccn4)O[C@H](CO)[C@@H]2O3)cc1	-1	0
C[C@@H]1CCCCO[C@@H](CN(C)S(=O)(=O)c2ccc(F)cc2)[C@H](C)CN([C@H](C)CO)C(=O)c2cc(NC(=O)Nc3ccc(C(F)(F)F)cc3)ccc2O1	-2	-1
O=C(C[C@@H]1C=C[C@@H](NC(=O)CN2CCOCC2)[C@@H](CO)O1)NC1CCCCC1	4	2
O=C(C[C@@H]1CC[C@H]2[C@@H](COC[C@H](O)CN2Cc2ccc(Cl)cc2)O1)Nc1nccs1	?	nt
COCC(=O)Nc1ccc2c(c1)C(=O)N(C)[C@H]1CC[C@@H](CC(=O)NCCCN(C)C)O[C@@H]1CO2	5	1
C[C@@H]1CN([C@@H](C)CO)C(=O)c2cccc(NS(=O)(=O)c3cn(C)cn3)c2O[C@@H]1CN(C)C(=O)Nc1ccc(F)cc1	27	24
CC(=O)N(C)C[C@@H]1Oc2cc(C#Cc3ccccc3)ccc2S(=O)(=O)N([C@@H](C)CO)C[C@@H]1C	-31	-28

Of the compounds above, these have an NH in an aromatic ring:
SMILES	Vaccinia inh	Vaccinia inh Venus
COc1ccc2c3c([nH]c2c1)[C@@H](CO)N(C(=O)CC1CC1)CC31CN(Cc2ccncc2)C1	8	8
COc1ccc2c3c([nH]c2c1)[C@@H](CO)N(CC1CC1)CC31CCN(C(=O)NC2CCCC2)CC1	9	14

(listing goes on)
SMILES	Vaccinia inh	Vaccinia inh Venus
CCCC#Cc1ccc([C@@H]2[C@@H](CO)N3C(=O)CN(C(=O)Cc4cccnc4)C[C@@H]23)cc1	-4	-5
C[C@@H]1CCCCO[C@@H](CN(C)S(=O)(=O)c2ccccc2)[C@@H](C)CN([C@@H](C)CO)C(=O)c2cc(NS(=O)(=O)c3cn(C)cn3)ccc2O1	13	19
CN1CCN(C(=O)C[C@@H]2CC[C@H]3[C@@H](COC[C@@H](O)CN3S(=O)(=O)c3cccc(F)c3)O2)CC1	10	12
CCCC#Cc1cnc2c(c1)C(=O)N([C@H](C)CO)C[C@H](C)[C@H](CN(C)C(=O)Cc1ccncc1)O2	-8	-6
O=C(Cc1ccncc1)Nc1ccc2c(c1)[C@@H]1C[C@H](CC(=O)NC3CCCCC3)O[C@@H](CO)[C@@H]1O2	-7	-4
COCCNC(=O)C[C@@H]1CC[C@@H](NC(=O)NC2CCCCC2)[C@H](CO)O1	1	2
C[C@@H]1CN([C@@H](C)CO)C(=O)c2cccc(NC(=O)Nc3ccccc3)c2O[C@@H]1CN(C)C(=O)Nc1cccc2ccccc12	-5	-5
CCCC(=O)Nc1ccc2c(c1)OC[C@H](C)N(C(=O)CC)C[C@H](C)[C@H](OC)CN(C)C2=O	-3	-4
COc1ccc2c3c(n(C)c2c1)[C@H](CO)N(C(=O)CN1CCOCC1)CC31CN(C(=O)CC2CC2)C1	10	11
O=C(Nc1ccc2c(c1)[C@@H]1C[C@@H](CC(=O)N3CCc4ccccc4C3)O[C@@H](CO)[C@@H]1O2)Nc1ccccc1F	-93*	-23*
COc1ccc(NC(=O)Nc2ccc3c(c2)C(=O)N([C@H](C)CO)C[C@H](C)[C@@H](CN(C)CC2CCCCC2)O3)cc1	-18	-18
C[C@@H]1CN([C@@H](C)CO)C(=O)c2cc(NS(=O)(=O)c3ccc(Cl)cc3)ccc2O[C@@H]1CN(C)S(=O)(=O)c1cn(C)cn1	11	11
C[C@@H]1CN([C@@H](C)CO)C(=O)c2cc(NC(=O)Nc3ccccc3)ccc2O[C@H]1CN(C)C(=O)Nc1ccccc1	15	14
COc1ccc2c3c([nH]c2c1)[C@H](CO)N(C)CC31CCN(S(=O)(=O)c2cn(C)cn2)CC1	7	6
C[C@H](CO)N1C[C@H](C)[C@H](CN(C)S(=O)(=O)c2ccccc2)Oc2ccc(NC(=O)Nc3ccccc3)cc2CC1=O	-10	-2
Cc1ccc(S(=O)(=O)N(C)C[C@H]2OCCCC[C@H](C)Oc3ccc(NC(=O)NC4CCCCC4)cc3C(=O)N([C@@H](C)CO)C[C@@H]2C)cc1	-28	-10
C[C@@H]1CN([C@@H](C)CO)C(=O)c2cccc(NC(=O)Nc3ccc(C(F)(F)F)cc3)c2O[C@@H]1CN(C)S(=O)(=O)c1cn(C)cn1	-25	-16
COc1ccccc1S(=O)(=O)N(C)C[C@H]1OCc2cnnn2CCCC(=O)N([C@H](C)CO)C[C@@H]1C	0	-3
CCCN1[C@H](C(=O)N[C@H](C)c2ccccc2)[C@@H](CO)[C@@H]2Cn3c(ccc(-c4ccccc4)c3=O)[C@@H]21	-31	-25
COc1cccc(-c2cn(CC[C@@H]3CC[C@H](NC(=O)CN(C)C)[C@H](CO)O3)nn2)c1	1	9

3 entries from above, sorted by SMILES length, high to low.
SMILES	Vaccinia inh	Vaccinia inh Venus
CCCN1[C@H](C(=O)N[C@H](C)c2ccccc2)[C@@H](CO)[C@@H]2Cn3c(ccc(-c4ccccc4)c3=O)[C@@H]21	-31	-25
COc1ccccc1S(=O)(=O)N(C)C[C@H]1OCc2cnnn2CCCC(=O)N([C@H](C)CO)C[C@@H]1C	0	-3
COc1cccc(-c2cn(CC[C@@H]3CC[C@H](NC(=O)CN(C)C)[C@H](CO)O3)nn2)c1	1	9

(next part)
SMILES	Vaccinia inh	Vaccinia inh Venus
C[C@H]1CN([C@@H](C)CO)C(=O)c2cc(C#CCc3ccccc3)cnc2O[C@@H]1CN(C)Cc1ccccn1	0	2
CC(C)NC(=O)Nc1cccc2c1O[C@H](CN(C)Cc1ccncc1)[C@H](C)CN([C@@H](C)CO)C2=O	8	2
O=C(C[C@@H]1C=C[C@@H](NC(=O)Nc2ccc(C(F)(F)F)cc2)[C@H](CO)O1)NCc1cccc(F)c1	-10	-7
COc1ccc(S(=O)(=O)Nc2cccc3c2O[C@H](CN(C)Cc2ccncc2)[C@@H](C)CN([C@@H](C)CO)C3=O)cc1	27	12
COc1ccc(S(=O)(=O)Nc2ccc3c(c2)CC(=O)N([C@@H](C)CO)C[C@@H](C)[C@H](CN(C)Cc2ccccc2)O3)cc1	?	nt
CCCNC(=O)C[C@H]1C[C@H]2c3cc(NC(=O)Nc4ccc(F)cc4)ccc3O[C@H]2[C@H](CO)O1	14	9
COc1ccc2c3c([nH]c2c1)[C@H](CO)N(C(=O)c1cccc(F)c1)CC31CN(C(=O)c2ccccc2)C1	-6	-6
CC(C)C#Cc1ccc2c(c1)O[C@H](CN(C)S(C)(=O)=O)[C@@H](C)CN([C@H](C)CO)S2(=O)=O	-10	-19
